MITF inhib – inhibitors of MITF; TRPM1 promoter luciferase, luminescence, 24 h; inhibition, % (test concentration not listed); 37,000 compounds, 0.28% hits;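 active = most replicates at 85% or more, or half of them and the mean; inconclusive = half reach 85% but not the mean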;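 note: human melanocyte line stably carrying TRPM1 promoter luciferase reporter; 0% = vehicle wells and 100% = a positive control; the first replicate is given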
Shh pathway inh – Sonic Hedgehog pathway inhibition; AID 2313; 22,000 compounds, 2.1% hits; inhibition, % (no concentration beside the values); Shh-LIGHT2 Gli-luciferase reporter, 30 h;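 active = replicate mean of 65% or more; inconclusive = mean lower but half the replicates past it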;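 note: pathway switched on by Shh-conditioned medium diluted 1 in 25 in low serum; 100 nL library stock added to about 40 µL; 0% = median of neutral wells and 100% = positive control level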
YB-1 expression – YB-1 expression inhibition. U2OS, qRT-PCR YB-1 vs CDIP delta delta Cp, 16 h; stronger effect = higher value; zero = DMSO, each unit about twofold. delta delta Cp (YB-1 minus CDIP) (concentration not given with the values). 30,000 compounds, 0.37% hits. AID 434959;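 active = delta delta Cp rounded down to an integer at or above 3, about 3 SD of DMSO wells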;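 note: higher means less YB-1 transcript or more CDIP transcript relative to DMSO; stock transfer was 100 nL into about 100 µL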
PD-1 reverse act – reversal of PD-1 mediated T-cell inhibition | activation, % (no concentration beside the values) | primary human CD4 T cells, PD-L1 beads, CellTiter-Glo 96 h | AID 2316 | 29,000 tested, under 10 active;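 active = replicate mean of 50% or more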;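 note: 0% = median vehicle wells and 100% = positive control; 100 nL library stock added to about 50 µL; numbers are from one replicate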
* marks the source's active call; other numbers are inactive results; ? = inconclusive; . = no result given. These rows are one share of the data (hit frequency here may not be typical).

A first look:
SMILES	MITF inhib	Shh pathway inh	YB-1 expression	PD-1 reverse act
C[C@@H]1CN([C@H](C)CO)C(=O)c2cccc(NS(=O)(=O)c3ccc(Cl)cc3)c2O[C@@H]1CN(C)C(=O)Nc1ccc2c(c1)OCO2	11	17	-0.14	.
COc1ccc(Br)cc1/C=C/C(=O)O	12	14	-0.042	-1.3
COc1ccc2c(c1)CCC1C2CC[C@@]2(C)C1CC[C@@H]2O (stereo partly specified)	-21	5	0.36	.
C[C@@H]1CN([C@H](C)CO)C(=O)c2cc(NC(=O)Nc3ccc(F)cc3)ccc2O[C@@H]1CN(C)C(=O)NC1CCCCC1	-6	1	0.23	-1.0
C[C@H](CO)N1C[C@H](C)[C@@H](CN(C)C(=O)Nc2cccc3ccccc23)Oc2ccc(NC(=O)Nc3ccc4c(c3)OCO4)cc2C1=O	16	.	-0.0087	.

Main list, from the start:
SMILES	MITF inhib	Shh pathway inh	YB-1 expression	PD-1 reverse act
C[C@@H]1CN([C@H](C)CO)C(=O)c2cccc(NS(=O)(=O)c3ccc(Cl)cc3)c2O[C@@H]1CN(C)C(=O)Nc1ccc2c(c1)OCO2	11	17	-0.14	.
COc1ccc(Br)cc1/C=C/C(=O)O	12	14	-0.042	-1.3
COc1ccc2c(c1)CCC1C2CC[C@@]2(C)C1CC[C@@H]2O (stereo partly specified)	-21	5	0.36	.
C[C@@H]1CN([C@H](C)CO)C(=O)c2cc(NC(=O)Nc3ccc(F)cc3)ccc2O[C@@H]1CN(C)C(=O)NC1CCCCC1	-6	1	0.23	-1.0
C[C@H](CO)N1C[C@H](C)[C@@H](CN(C)C(=O)Nc2cccc3ccccc23)Oc2ccc(NC(=O)Nc3ccc4c(c3)OCO4)cc2C1=O	16	.	-0.0087	.
C[C@@H]1CN([C@H](C)CO)C(=O)c2cccc(NC(=O)C3CCOCC3)c2O[C@H]1CN(C)S(=O)(=O)c1ccc(F)cc1	0	-5	-0.069	0.6
CC(C)NC(=O)N(C)C[C@H]1Oc2ccc(NC(=O)Nc3ccccc3)cc2CC(=O)N([C@@H](C)CO)C[C@H]1C	-11	-23	-0.54	-0.3
Cc1noc(C)c1NC(=O)N(C)C[C@@H]1Oc2c(cccc2N(C)C)C(=O)N([C@H](C)CO)C[C@@H]1C	-8	-23	-0.014	1.7
COc1ccc(S(=O)(=O)Nc2cccc3c2O[C@H](CN(C)Cc2ccc(Cl)c(Cl)c2)[C@H](C)CN([C@@H](C)CO)C3=O)cc1	-4	53	-0.0042	-2.0
COc1cccc(OC)c1C(=O)NC(=S)Nc1cccc(-c2nn3c(C)nnc3s2)c1	39	.	.	-3.2
C[C@H]1CN([C@@H](C)CO)C(=O)Cc2cc(NC(=O)Nc3ccccc3)ccc2O[C@@H]1CN(C)S(=O)(=O)c1ccccc1	-29	-27	0.001	-0.5
C[C@@H]1CN([C@H](C)CO)C(=O)Cc2cc(NC(=O)Nc3ccccc3)ccc2O[C@H]1CN(C)S(C)(=O)=O	1	-28	0.099	.
COc1cccc(NC(=O)CSc2nnc(-c3cccc(C)c3)n2-c2ccccc2)c1	37	.	.	-2.8
C[C@H]1CN([C@@H](C)CO)C(=O)Cc2cc(NC(=O)Cc3ccccc3)ccc2O[C@H]1CN(C)C	2	-17	0.082	2.1
C[C@@H]1CN([C@H](C)CO)C(=O)c2cc(NC(=O)CCC(F)(F)F)ccc2O[C@@H]1CN(C)Cc1ccncc1	-7	.	-0.042	0.1
COc1ccc(S(=O)(=O)N(C)C[C@@H]2Oc3c(NC(=O)Nc4c(C)noc4C)cccc3C(=O)N([C@H](C)CO)C[C@@H]2C)cc1	-3	19	-0.055	0.1
COc1ccc(CN(C)C[C@H]2Oc3c(NC(=O)C4CC4)cccc3C(=O)N([C@@H](C)CO)C[C@H]2C)cc1	-1	-3	-0.072	.
C[C@H]1CN([C@@H](C)CO)C(=O)c2cc(NS(=O)(=O)c3ccc(Cl)cc3)ccc2O[C@H]1CN(C)Cc1ccccc1	10	14	-0.085	0.8
O=c1c(=O)n2c(nn1Cc1ccc(F)cc1)sc1ccccc12	-1	-31	-0.25	-0.6
C[C@H]1CN([C@@H](C)CO)C(=O)c2cc(NS(=O)(=O)c3cccs3)ccc2O[C@H]1CN(C)C(=O)NC1CCCCC1	10	-13	-0.48	0.3
C[C@H](CO)N1C[C@H](C)[C@@H](CN(C)Cc2ccc(C(=O)Nc3ccccc3N)cc2)Oc2ccc(NC(=O)Nc3ccc(C(F)(F)F)cc3)cc2C1=O	8	.	-0.55	-0.9
O=C(Nc1ccccc1)Nc1sccc1-c1nc2ccccc2s1	-16	.	-0.094	-1.0
C[C@@H]1CN([C@H](C)CO)C(=O)Cc2cc(NS(=O)(=O)c3ccc(F)cc3)ccc2O[C@@H]1CN(C)C(=O)Nc1ccc2c(c1)OCO2	5	-39	-0.3	0.4
CC(C)NC(=O)Nc1ccc2c(c1)CC(=O)N([C@H](C)CO)C[C@H](C)[C@H](CN(C)Cc1ccc(C(=O)O)cc1)O2	-14	.	-0.037	.
C[C@@H]1CCCCO[C@H](CN(C)C(=O)Nc2ccc(C(F)(F)F)cc2)[C@@H](C)CN([C@H](C)CO)C(=O)c2cc(NC(=O)c3ccccc3)ccc2O1	15	-18	0.39	-4.8
C[C@@H]1CN([C@@H](C)CO)C(=O)c2cc(NS(=O)(=O)c3cn(C)cn3)ccc2O[C@H]1CN(C)C(=O)Nc1ccc(F)cc1	-3	-12	-0.47	.
C[C@H](CO)N1C[C@H](C)[C@H](CN(C)Cc2ccc(Oc3ccccc3)cc2)Oc2c(NS(=O)(=O)c3cn(C)cn3)cccc2C1=O	-6	-9	-0.51	.
CC(NCCc1ccc(O)cc1)C(O)c1ccc(O)cc1 (stereo unspecified)	11	36	-0.48	.
O=C1CCC(=O)N1CNc1cccc(Cl)c1	-4	-20	-0.23	0.0
Cc1[nH]c2ccccc2c1C(O)c1cccnc1 (stereo unspecified)	13	?	0.084	-12
COc1ccc(-c2nnsc2N2C(=O)c3ccccc3C2=O)cc1	3	-5	-0.16	2.0
C[C@@H]1CN([C@@H](C)CO)C(=O)c2cc(NC(=O)C3CC3)ccc2O[C@H]1CN(C)Cc1ccc(C(F)(F)F)cc1	-2	23	-0.16	0.2
C[C@H]1CN([C@@H](C)CO)C(=O)c2cccc(NS(=O)(=O)c3ccccc3)c2O[C@H]1CN(C)Cc1ccc(Cl)c(Cl)c1	-8	21	-0.052	1.8
C[C@@H]1CCCCO[C@@H](CN(C)Cc2ccc(C(F)(F)F)cc2)[C@@H](C)CN([C@H](C)CO)C(=O)c2cc(NC(=O)CCCN(C)C)ccc2O1	2	.	-1.2	-0.3
Cc1nn(Cc2ccc(F)cc2)c(C)c1NC(=O)C1CC(c2cccc(Br)c2)=NO1 (stereo unspecified)	11	.	.	-2.3
C[C@@H]1CN([C@@H](C)CO)C(=O)Cc2cc(NC(=O)Nc3ccc4c(c3)OCO4)ccc2O[C@@H]1CN(C)S(C)(=O)=O	2	2	-0.11	.
COc1ccc(NC(=O)N(C)C[C@H]2Oc3ccc(NS(=O)(=O)c4ccc(Cl)cc4)cc3C(=O)N([C@H](C)CO)C[C@H]2C)cc1	3	.	0.084	0.5
C[C@H]1CN([C@@H](C)CO)C(=O)c2cc(NS(=O)(=O)c3ccccc3)ccc2O[C@H]1CN(C)C(=O)Nc1ccc(F)cc1	-3	.	0.17	-3.6
CC(C)NC(=O)Nc1cccc2c1O[C@H](CN(C)Cc1ccc(C(F)(F)F)cc1)[C@H](C)CN([C@@H](C)CO)C2=O	-1	-35	0.69	1.7
C[C@@H]1CN([C@@H](C)CO)C(=O)c2cccc(NC(=O)Nc3ccc4c(c3)OCO4)c2O[C@H]1CN(C)Cc1ccc2c(c1)OCO2	5	-45	0.1	-9.6
C[C@H](CO)N1C[C@H](C)[C@H](CN(C)C(=O)Nc2ccc(F)cc2)Oc2ccc(NC(=O)Cc3ccccc3)cc2CC1=O	-10	-42	0.02	0.5
NS(=O)(=O)c1ccc(N2C(=O)C3CC=CCC3C2=O)cc1 (stereo unspecified)	-23	7	-0.44	1.1
COc1ccc2c(c1)c(C(=O)ON1C(=O)CCC1=O)c(C)n2C1CC1	-25	9	3.8*	-0.5
C[C@H]1CN([C@@H](C)CO)C(=O)c2cccc(NS(=O)(=O)c3ccccc3)c2O[C@@H]1CN(C)Cc1ccc(-c2ccccc2)cc1	5	-49	0.29	-0.6
C[C@H](CO)N1C[C@H](C)[C@H](CN(C)Cc2ccccc2)Oc2c(NC(=O)Nc3ccc4c(c3)OCO4)cccc2C1=O	-1	-42	-0.71	0.1
COc1ccc(S(=O)(=O)Nc2cccc3c2O[C@H](CN(C)S(=O)(=O)c2cn(C)cn2)[C@@H](C)CN([C@H](C)CO)C3=O)cc1	-1	-20	0.03	2.2
COC(=O)Cc1c(C)nc2nc(NCc3c(F)cccc3Cl)[nH]n2c1=O	-10	.	.	2.3
COc1ccc(S(=O)(=O)Nc2cccc3c2O[C@@H](CN(C)S(=O)(=O)c2ccc(OC)cc2)[C@H](C)CN([C@@H](C)CO)C3=O)cc1	0	-17	-0.18	.
CCOC(=O)c1ncn2c1CN(C)C(=O)c1cc(F)ccc1-2	17	-62	0.12	.
C[C@H](CO)N1C[C@H](C)[C@H](CN(C)Cc2ccc(Cl)c(Cl)c2)Oc2ccc(NS(=O)(=O)c3ccc(F)cc3)cc2C1=O	-4	-1	0.22	0.3
Cc1noc(C)c1NC(=O)Nc1cccc2c1O[C@H](CN(C)S(=O)(=O)c1ccc(Cl)cc1)[C@@H](C)CN([C@@H](C)CO)C2=O	-15	-30	0.12	-0.7
C[C@H]1CN([C@@H](C)CO)C(=O)Cc2cc(NC(=O)Cc3ccccc3)ccc2O[C@@H]1CN(C)C(=O)NC1CCCCC1	-7	7	-0.5	.
O=c1c(-c2ccc(O)cc2O)coc2cc(O)cc(O)c12	-25	8	-0.39	3.7
C[C@H]1CN([C@@H](C)CO)C(=O)c2cccc(NC(=O)C3CC3)c2O[C@@H]1CN(C)CC1CCCCC1	-7	21	-0.27	-4.8
Cc1cc(C(=O)Nc2cccc3c2O[C@@H](CN(C)S(=O)(=O)c2c(C)noc2C)[C@@H](C)CN([C@H](C)CO)C3=O)n(C)n1	-28	-46	1.9	0.2
COc1ccccc1NC(=O)C1=C(C)Nc2ncnn2C1c1ccc(C(=O)O)cc1 (stereo unspecified)	-14	.	.	1.4
C[C@@H]1CN([C@@H](C)CO)C(=O)c2cccc(NS(=O)(=O)c3ccccc3)c2O[C@H]1CN(C)Cc1ccc(Cl)c(Cl)c1	-27	-8	0.21	-0.2
Cc1noc(C)c1S(=O)(=O)Nc1ccc2c(c1)C(=O)N([C@@H](C)CO)C[C@@H](C)[C@@H](CN(C)S(=O)(=O)c1ccc(Cl)cc1)O2	-4	.	-0.21	.
C[C@@H]1CN([C@H](C)CO)C(=O)c2cccc(NC(=O)Nc3ccc(F)cc3)c2O[C@H]1CN(C)Cc1ccc(C(=O)O)cc1	-3	14	0.82	1.6
COC(=O)c1ccccc1NC(=O)CN(C)S(=O)(=O)c1ccccc1	-12	.	.	2.0

Two entries drawn at random from the list so far:
SMILES	MITF inhib	Shh pathway inh	YB-1 expression	PD-1 reverse act
COc1ccccc1NC(=O)C1=C(C)Nc2ncnn2C1c1ccc(C(=O)O)cc1 (stereo unspecified)	-14	.	.	1.4
C[C@H](CO)N1C[C@H](C)[C@H](CN(C)Cc2ccc(Cl)c(Cl)c2)Oc2ccc(NS(=O)(=O)c3ccc(F)cc3)cc2C1=O	-4	-1	0.22	0.3

New compounds follow.
SMILES	MITF inhib	Shh pathway inh	YB-1 expression	PD-1 reverse act
C[C@H]1CN([C@@H](C)CO)C(=O)Cc2cc(NS(=O)(=O)c3cn(C)cn3)ccc2O[C@@H]1CN(C)Cc1ccc(-c2ccccc2)cc1	-8	0	0.23	0.9
C[C@@H]1CN([C@H](C)CO)C(=O)c2cccc(NC(=O)C3CCCCC3)c2O[C@H]1CN(C)S(=O)(=O)c1ccccc1	-3	31	0.22	-0.3
C[C@H](CO)N1C[C@H](C)[C@@H](CN(C)Cc2ccc(Oc3ccccc3)cc2)Oc2c(NC(=O)Nc3ccc(C(F)(F)F)cc3)cccc2C1=O	22	6	0.69	.
C[C@H]1CN([C@@H](C)CO)C(=O)Cc2cc(NC(=O)c3ccncc3)ccc2O[C@H]1CN(C)S(=O)(=O)c1ccccc1	11	2	0.11	.
CC1OC(=O)CC2C(C(=O)O)=CC3CC(C)(C)CC312 (stereo unspecified)	-10	-25	0.1	-1.2
Cc1noc(C)c1S(=O)(=O)N(C)C[C@@H]1Oc2c(NC(=O)C3CCOCC3)cccc2C(=O)N([C@H](C)CO)C[C@@H]1C	-10	-12	-0.16	.
C[C@@H]1CN([C@H](C)CO)C(=O)Cc2cc(NC(=O)NC3CCCCC3)ccc2O[C@H]1CN(C)C(=O)Nc1ccc2c(c1)OCO2	12	-6	0.098	.
C[C@@H]1CN([C@@H](C)CO)C(=O)Cc2cc(NS(=O)(=O)c3cccs3)ccc2O[C@@H]1CN(C)C(=O)Nc1ccc2c(c1)OCO2	1	-51	0.39	-0.4
COc1ccc(S(=O)(=O)Nc2ccc3c(c2)CC(=O)N([C@@H](C)CO)C[C@H](C)[C@H](CN(C)Cc2ccc(Oc4ccccc4)cc2)O3)cc1	18	-15	0.25	4.3
Cc1ccc(S(=O)(=O)Nc2ccc3c(c2)C(=O)N([C@H](C)CO)C[C@H](C)[C@@H](CN(C)S(=O)(=O)c2ccccc2)O3)cc1	-4	-11	-0.24	.

High-throughput results from PubChem.
